Sa growth inh: blocks Staphylococcus aureus growth. S. aureus RN4220 growth, OD600, 20 h, 42 °C; active compounds read low. relative growth, % (test concentration not listed). hit rate 0.53% among 170,000. AID 720641;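 active means growth at 42 °C up to 50% and 20 or more points under that at 30 °C, or under 10% at both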;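 further: 300 nL library stock went into each well; scaled to the means of positive and negative controls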
GIV-Gai inh: inhibitors of GIV GBA-motif binding to rat Galpha-i3. P08753. Galpha-i3/FITC-GIV peptide fluorescence polarization, 90 min; active compounds read low; scaled: aluminum fluoride 0%, vehicle 100%. percent of control (FP), % (test concentration not listed). hit rate 0.42% among 210,000. AID 1224905;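 active means replicate mean at 85% of control or lower, very high polarization wells dropped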;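 further: lower values mean more displacement of the GIV peptide from Galpha-i3; wells of about 15 µL received 100 nL stock; the first replicate is given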
Target sequence (P08753 whole entry, looked up): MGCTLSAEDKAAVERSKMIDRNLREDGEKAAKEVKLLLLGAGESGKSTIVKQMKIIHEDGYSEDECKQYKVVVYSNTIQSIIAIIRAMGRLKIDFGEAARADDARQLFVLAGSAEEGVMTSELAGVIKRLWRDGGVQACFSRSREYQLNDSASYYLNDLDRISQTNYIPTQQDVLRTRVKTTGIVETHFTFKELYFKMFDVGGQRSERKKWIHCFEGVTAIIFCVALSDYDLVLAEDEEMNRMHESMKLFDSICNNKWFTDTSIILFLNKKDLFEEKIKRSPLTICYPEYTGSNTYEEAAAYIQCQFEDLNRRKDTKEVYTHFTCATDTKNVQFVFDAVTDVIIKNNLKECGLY
HCMV NEC inh: cytomegalovirus nuclear egress complex inhibition. inhibition, % (concentration not given with the values). hit rate 0.15% among 190,000. AID 1918969. HTRF UL50-UL53 interaction, normalized percent inhibition;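 active means both replicates at 50% or more, plus weaker picks with an unusually low signal ratio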;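 further: stock transfer was 100 nL into about 20 µL; 0% = negative control wells and 100% = wells with untagged competitor protein; inactives centre near -12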
Sa growth inh second temp: second read-out of Sa growth inh, no call of its own (marks repeat the call); relative growth, %; measured here: growth at 30 °C;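 optical density after 20 h as mean of two plates; 100% = untreated growth and lower means inhibition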
The depositor's hits bear a star; . = no result given; & = joins results of further samples.

nr	SMILES	Sa growth inh	Sa growth inh second temp	GIV-Gai inh	HCMV NEC inh
1	COC(=O)c1ccc(C2C(Oc3ccccc3)C(=O)N2CCc2ccc(OC)c(OC)c2)cc1 (configuration not stated)	101.0	98.7	98.1	.
2	Cn1cnnc1SCc1ccc(C(=O)N/N=C/c2cccs2)cc1	92.5	97.2	.	-43.3
3	CN(C)S(=O)(=O)c1cccc(C(=O)N2CCN(C(=O)C3CCCO3)CC2)c1 (configuration not stated)	88.7	79.2	.	-23.7
4	O=c1c2ccccc2[nH]c(=S)n1CCCN1CCN(c2ccccc2)CC1	92.1	94.9	110.1	-5.8
5	COc1ccc(Nc2nc(Nc3ccc(OC)cc3)nc(N3CCNCC3)n2)cc1	.	.	104.5	-29.5
6	O=C(Nc1ccc(F)cc1)N1CCN(Cc2nc3cc(C(=O)N4CCCC4)ccc3o2)CC1	.	.	103.5	-28.5
7	Cc1cccc(-c2cc3nc(C)c(C)c(N4CCC5(CC4)OCCO5)n3n2)c1	99.4	92.9	103.3	-1.3
8	Cc1ccc(C(=O)CCC(=O)N2CCN(C/C=C/c3ccccc3)CC2)cc1	109.9	97.2	.	-7.1
9	COc1cccc(N2CCN(CC(=O)c3c(N)n(C)c(=O)n(C)c3=O)CC2)c1	108.5	92.3	.	-5.9
10	O=C(On1c(-c2ccc(Br)cc2)nc2ccccc2c1=O)c1ccc(F)cc1	.	.	106.3	2.0
11	CCOC(=O)C1CCCN(CC(=O)Nc2cc3c(cc2C)n(C)c(=O)c(=O)n3C)C1 (configuration not stated)	.	.	98.6	4.9
12	CCCN1C(=O)CSC1=Nc1ccccc1	98.9	87.4	97.3	-5.8
13	COc1ccc(C(=O)COC(=O)CCc2nc3ccccc3[nH]c2=O)cc1Br	93.8	93.4	.	1.7
14	Oc1cccc(Nc2ncnc3sc4c(c23)CCCC4)c1	82.3	92.5	98.3	.
15	O=C1c2ccccc2C(=O)c2c1ncn2Cc1ccccc1	84.8	35.7	.	-152.9
16	COc1ccc(NC(=O)C2=C(C)C(=O)OC23CCN(S(C)(=O)=O)CC3)c(OC)c1	106.5	92.7	99.3&110.8	-14.6&-18.7
17	C=CCn1c(-c2ccc(Cl)cc2)cnc1SC(C)C(N)=O (configuration not stated)	82.9	85.5	.	-19.3
18	COC(=O)c1ccccc1N(C)C(=O)c1cccc(S(=O)(=O)N2CCCCC2)c1	96.7	88.5	.	-3.8
19	CCN1C(=O)CSC1=Nc1cccc(C(=O)O)c1	95.2	84.9	104.0	.
20	COc1ccc(NS(=O)(=O)c2cccc(C(=O)N/N=C(\C)c3ccco3)c2)cc1	73.9	76.2	.	-56.2
21	O=C(O)CCCC(=O)Nc1cc(-c2ccccc2)[nH]n1	111.8	96.3	106.5	-1.8
22	O=C1c2ccccc2NC(c2cccs2)N1CCCN1CCOCC1 (configuration not stated)	87.3	84.3	101.4	-23.6
23	Cc1c(NS(=O)(=O)c2ccc(Br)s2)c(-n2cnnc2)nn1C	.	.	104.6	-19.6
24	CC(=O)N1CCN(c2ccc(Oc3nnnn3-c3ccccc3)cc2)CC1	86.2	81.0	.	-21.7
25	CC(OC(=O)c1ccco1)C(=O)Nc1ccc(C(F)(F)F)cc1 (configuration not stated)	95.3	96.3	.	-8.8
26	O=C1CC(=O)N(/N=C2\C(=O)Nc3ccccc32)C(=S)C1	100.1	66.9	.	-70.7
27	COC(=O)c1cccnc1SC	94.1	97.5	108.1	5.9
28	CCOC(=O)N1CCN(C2CCCc3c2[nH]c2ccc(C)cc32)CC1 (configuration not stated)	84.2	89.8	99.2	-12.9
29	COC(=O)c1sccc1S(=O)(=O)N1CCN(c2ncnc3c(C)csc23)CC1	84.2	89.4	100.7	-32.4
30	Cc1cc(C(=O)COC(=O)c2ccc(NC(=O)CC#N)cc2)c(C)n1C1CC1	107.9	96.8	.	-25.7

Sorted by number of heavy atoms (lowest first): part of the list above
nr	SMILES	Sa growth inh	Sa growth inh second temp	GIV-Gai inh	HCMV NEC inh
23	Cc1c(NS(=O)(=O)c2ccc(Br)s2)c(-n2cnnc2)nn1C	.	.	104.6	-19.6
28	CCOC(=O)N1CCN(C2CCCc3c2[nH]c2ccc(C)cc32)CC1 (configuration not stated)	84.2	89.8	99.2	-12.9
29	COC(=O)c1sccc1S(=O)(=O)N1CCN(c2ncnc3c(C)csc23)CC1	84.2	89.4	100.7	-32.4

Additional structures
nr	SMILES	Sa growth inh	Sa growth inh second temp	GIV-Gai inh	HCMV NEC inh
31	COCCNC(=O)CSc1nc2cc3c(cc2c(=O)n1Cc1ccc(C(=O)NCCc2ccc(OC)c(OC)c2)cc1)OCO3	105.1	85.3	103.9	.
32	Cc1ccc(N2CCN(C(=O)c3nn(C)c4c3CSc3ccccc3-4)CC2C)cc1 (configuration not stated)	99.3	97.7	103.2	-24.8
33	Clc1ccccc1CSc1nc2ncccc2[nH]1	.	.	100.5	-23.6
34	CCOc1ccc(NC(=O)C2CCC(CNS(=O)(=O)c3ccc(Br)s3)CC2)cc1 (configuration not stated)	102.8	88.3	103.4	-24.8
35	O=C(C1CCN(c2ncnc3sccc23)CC1)N1CCCCCC1	62.2	93.5	.	-30.6
36	CCOC(=O)c1cc(NC(=O)N2CCCC2)c(C)nc1C	76.4	91.3	.	-34.3
37	COc1ccc2[nH]cc(CCNc3ccc(S(=O)(=O)C(C)C)nn3)c2c1	.	.	98.2	-30.0
38	O=C1CCC(C(=O)Nc2ccccc2)N1 (configuration not stated)	105.5	81.9	99.9	-5.1
39	CCN1C(=O)/C(=C/c2ccco2)NC1=S	80.8	66.6	115.8	.
40	O=C(COC(=O)C1=COCCO1)NC1CCCCCCC1	88.5	84.5	.	-2.9

Full records, looked up by structure. Screens in order: Sa growth inh | Sa growth inh second temp | GIV-Gai inh | HCMV NEC inh
Record of COCCNC(=O)CSc1nc2cc3c(cc2c(=O)n1Cc1ccc(C(=O)NCCc2ccc(OC)c(OC)c2)cc1)OCO3 → 105.1 | 85.3 | 103.9 | .
Record of O=C(COC(=O)C1=COCCO1)NC1CCCCCCC1 → 88.5 | 84.5 | . | -2.9
Record of COc1ccc2[nH]cc(CCNc3ccc(S(=O)(=O)C(C)C)nn3)c2c1 → . | . | 98.2 | -30.0
Record of O=C1CCC(C(=O)Nc2ccccc2)N1 (configuration not stated) → 105.5 | 81.9 | 99.9 | -5.1

The list goes on:
nr	SMILES	Sa growth inh	Sa growth inh second temp	GIV-Gai inh	HCMV NEC inh
41	CCN(C(=O)[C@@H]1CCCN1C(=O)c1cccs1)c1nc2cc(Cl)ccc2s1	88.5	85.6	.	-7.2
42	CCC(=O)N(/C=C1\Sc2ccccc2C1=O)c1cccc(C)c1	.	.	172.8	-54.6
43	CCSc1nnc(NC(=O)Cc2n[nH]c(=O)c3ccccc23)s1	87.4	89.5	.	-29.8
44	O=c1c(C=NCc2ccco2)c(CSc2ccc(Cl)cc2)[nH]n1-c1nc2ccccc2s1	86.8	86.7	.	-3.1
45	O=C(Oc1cccc(C(F)(F)F)c1)c1cc2ccc3ccccc3c2s1	76.3	89.9	102.0	-42.4
46	CCOc1ccc(Cn2c(=O)c3sccc3n3c(=S)[nH]nc23)cc1OCC	.	.	100.7	-21.8
47	Cc1cc(C)cc(NC(=O)CCCn2c3ccccc3c(=O)c3ccccc32)c1	108.7	90.7	106.8	-12.4
48	COc1ccccc1Nc1c2c(nc3ccc(NC(=O)/C=C/c4cccs4)cc13)CCCC2	127.7	62.2	101.5	.
49	CCC(C)/C(C)=N/Nc1ccc(Cl)cc1 (configuration not stated)	97.3	93.1	.	11.5
50	CCOC(=O)C1CCCN(C(=O)CCc2c(C)nc3c(c(C)nn3-c3ccc(C)c(C)c3)c2C)C1 (configuration not stated)	.	.	100.7	-15.4
51	Cc1cc2nc(CSc3nc4sc5c(c4c(=O)n3C)CCCC5)cc(=O)n2o1	96.5	77.3	102.1	2.5
52	N#Cc1c(N)n(Cc2ccc(Cl)cc2)c2nc3ccccc3nc12	123.4	45.1	.	-4.0
53	COc1ccc(-c2coc3cc(OC)cc(O)c3/c2=N\N)cc1	75.5	90.5	.	8.1
54	O=C(NC1CC1)C1CCN(c2ccc(Sc3ccc(Br)cc3)nn2)CC1	.	.	106.8	-21.2
55	CSc1nc2c(c(=O)n1C)SC(C)C2 (configuration not stated)	83.6	84.5	106.3	-19.8
56	O=C(/C=C/c1cccs1)NC1CC1	88.6	97.5	.	-52.1
57	CCCCN(C(=O)c1ccccc1)C1CC2CCC(C1)N2C (configuration not stated)	77.2	91.6	.	-6.5
58	COc1ccc(NS(=O)(=O)c2ccc(Cc3cc(C)n[nH]c3=O)cc2)c(OC)c1	.	.	100.3	-12.5
59	O=C(COc1ccc2oc3c(c2c1)CCCC3)NCCNc1ncc(C(F)(F)F)cc1Cl	86.5	86.3	.	-24.2
60	COc1c(Cl)cc(C(=O)Nc2cccc(-c3nc4ccccc4[nH]3)c2)cc1Cl	82.8	76.7	107.0	-53.8
61	CCCNC(=O)NC1CCN(c2ncc(C(F)(F)F)cc2Cl)CC1	105.1	91.9	101.5	-9.0
62	Cc1cccc(C2C=C(c3ccc(F)cc3)Nc3nc4ccccc4n32)c1 (configuration not stated)	110.5	55.0	104.6	.
63	CC1(C(=O)NC2CCCCC2)Cn2c(c(-n3cccc3)c3ccccc32)C(=O)N1Cc1cccnc1 (configuration not stated)	.	.	102.1	-26.1
64	CC(=O)OC[C@H]1O[C@@H](n2cc(C)c(=O)[nH]c2=O)C[C@@H]1OC(C)=O	94.8	98.9	.	3.0
65	N#Cc1ccc(OC(=O)Cn2c(C(F)(F)F)nc3ccccc32)cc1	.	.	99.0	-10.6
66	Cc1ccc(S(=O)(=O)Cc2nc(-c3ccc(C(=O)NCCCOC(C)C)cc3)oc2C)cc1	137.5	97.8	109.3	.
67	COc1ccc(C2C(C(=O)N3CCCCC3)c3ccccc3C(=O)N2Cc2ccc(F)cc2)cc1 (configuration not stated)	90.1	79.8	100.4	.
68	O=c1cc(-c2ccccc2)nc2c(n1)NON2	76.4	87.7	.	-37.2
69	Cc1cccc(Cn2c(CNC(=O)c3ccccc3)nc3ccccc32)c1	99.4	91.3	93.8	-27.1
70	O=C1CC(=O)SC(c2ccccc2)=N1	111.0	94.6	102.5	-3.9
71	CCC(Sc1nc2cc(OC)c(OC)cc2c(=O)n1Cc1ccc(OC)cc1)C(=O)NCCOC (configuration not stated)	90.6	83.1	103.8	.
72	COc1ccc(C)cc1C(=O)CCC(=O)O	99.2	89.2	96.8	-7.3
73	CNc1ccc2ccccc2c1	77.7	56.2	.	-36.2
74	CC(NC(=O)CC12CC3CC(CC(C3)C1)C2)C(=O)O (configuration not stated)	108.4	100.6	106.4	.
75	CCNCc1ccc(-c2ccc(Cl)cc2)o1	.	.	102.6	-37.2
76	CCOC(=O)c1c(-c2ccccc2)csc1NC(=O)c1cc2ccccc2c(=O)s1	.	.	103.8	-5.3
77	COc1ccc(CNC(=O)C(C)N2Cc3ccccc3C2=O)cc1 (configuration not stated)	113.2	84.4	101.4	.
78	O=C(COc1ccc(F)cc1)NCc1ccc2c(c1)CCN2C(=O)c1ccc(F)cc1	117.7	90.3	101.7	.
79	Cn1c(-c2ccccc2)c(/C=C2/C(=O)Oc3ccccc3C2=O)c2ccccc21	95.2	62.2	44.5*	.
80	O=C1c2ccccc2C2=Nc3ccccc3SC12O (configuration not stated)	94.4	98.6	99.4	-11.4

Marked active in GIV-Gai inh (from the list above):
nr | structure | Sa growth inh | Sa growth inh second temp | GIV-Gai inh
79 | Cn1c(-c2ccccc2)c(/C=C2/C(=O)Oc3ccccc3C2=O)c2ccccc21 | 95.2 | 62.2 | 44.5*

Next section:
nr	SMILES	Sa growth inh	Sa growth inh second temp	GIV-Gai inh	HCMV NEC inh
81	O=C(OCc1nnc(-c2ccccc2)o1)C1c2ccccc2Oc2ccccc21	107.8	100.7	109.3	-27.6
82	N#CC(C#N)=C1c2ccccc2-c2c1nc1ccccc1[n+]2[O-]	117.8	58.7	103.9	-63.8
83	CC(C)c1ccc(NC(=O)Cn2nnc(C(=O)NCc3ccc4c(c3)OCO4)c2N)cc1	96.4	84.9	100.5	.
84	CC(C)c1ccc(OCC(=O)N(Cc2cccs2)C2CCS(=O)(=O)C2)cc1 (configuration not stated)	103.9	84.5	102.5	-25.4
85	O=C1CCCC(O)=C1C=Nc1cccc(Cl)c1Cl	.	.	102.6	4.7

Screening results deposited in PubChem BioAssay by ICCB-Longwood Screening Facility, Harvard Medical School.
